Source: PubChem
StopGo RLuc: Primary qHTS Assay for Foot and Mouth Disease Virus Antivirals against NCGC Sytravon and CBC Compound Libraries: Renilla Luciferase Signal; HEK cells with a luciferase reporter of 2A StopGo recoding; AID 1745857, 2022; hit rate 0.32% among 120,000; Potency, µM (doses to about 57.5 µM), inactives show at the highest dose signal change, negative = less light; active means well fitted falling curve with a large enough effect; inconclusive means small, poorly fitted or top-dose-only effect; inactive means no such curve, though single readings can be large or run the other way; also: nearly all actives have a fitted effect of over 55% in size; overnight with compound
2A firefly: Primary qHTS Assay for Foot and Mouth Disease Virus Antivirals against NCGC Sytravon and CBC Compound Libraries: Firefly Luciferase Signal | hit rate 0.23% among 120,000 | HEK cells with a luciferase reporter of 2A StopGo recoding | Potency, µM (highest dose often 57.5 µM), inactives show at the top dose signal change, negative = less light; active = well fitted falling curve with a large enough effect; inconclusive = small, poorly fitted or top-dose-only effect; inactive = no such curve, though single readings can be large or run the other way; also: nearly all actives have a fitted effect of over 60% in size; overnight with compound
An asterisk follows results filed as active; ? = inconclusive; & = joins results of further samples; [ ] = dose if it differs, or a comment. % is scaled to controls: 0 for no effect and ±100 for the full control effect; potency is read from the fitted curve at half-maximal effect.

Order of results: 2A firefly | StopGo RLuc
CC(C)(C)OC(=O)COc1ccc2c(-c3ccccc3)cc(=O)oc2c1
→ 102%[activator] | 7%
CC(C)(c1ccccc1)c1cccc(C(C)(C)c2ccccc2)c1O
→ 1% | -2%
C=CCOc1ccc(C=Nc2ccc(C)cc2C)c(O)c1
→ 0% | -8%
Cc1ccc(C)c(N2CCN(C(=O)C(C)n3nc(C)c4sc5ccccc5c4c3=O)CC2)c1 (stereo not drawn)
→ -20% | 4%
CC(C)c1cccc(OCCn2c(-c3ccc(Cl)cc3)nc3ccccc3c2=O)c1
→ -13% | -13%
CC(C)(C)NC(=O)COC(=O)c1cc(=O)c2ccccc2o1
→ 3% | -3%
CNC(=O)Cn1nc(-c2ccccc2)c2ccccc2c1=O
→ -11% | -13%
Cc1ccc(CNC(=S)NNC=O)cc1
→ 9% | 11%
O=c1[nH]c2cc(Br)ccc2n2cccc12
→ 4% | 5%
COc1cc(/C=C(\C#N)C(=O)C(C)(C)C)ccc1OCc1ccccc1Cl
→ 174%[activator] | 7%

Quoted at random: 6 compounds from above.
Order of results: 2A firefly | StopGo RLuc
CC(C)(C)NC(=O)COC(=O)c1cc(=O)c2ccccc2o1
→ 3% | -3%
C=CCOc1ccc(C=Nc2ccc(C)cc2C)c(O)c1
→ 0% | -8%
Cc1ccc(C)c(N2CCN(C(=O)C(C)n3nc(C)c4sc5ccccc5c4c3=O)CC2)c1 (stereo not drawn)
→ -20% | 4%
CC(C)(c1ccccc1)c1cccc(C(C)(C)c2ccccc2)c1O
→ 1% | -2%
O=c1[nH]c2cc(Br)ccc2n2cccc12
→ 4% | 5%
CC(C)c1cccc(OCCn2c(-c3ccc(Cl)cc3)nc3ccccc3c2=O)c1
→ -13% | -13%

Other entries:
Order of results: 2A firefly | StopGo RLuc
O=C(CSc1nccn1-c1cccc(Cl)c1)Nc1cccc2ccccc12
→ -8%&-15% | 14%&14%
Cc1ccc(NC(=O)c2ccc3c(Cl)c4c(nc3c2)CCCC4)cc1F
→ 12% | 3%
COc1ccc(S(=O)(=O)NCCc2nnc3ccc(SCC(=O)Nc4ccc(C(F)(F)F)cc4)nn23)cc1
→ -21% | 22%
OC(CCN1CCCCC1)(c1ccccc1)C1CC2C=CC1C2 (stereo not drawn)
→ -5% | -8%
CCCN(Cc1cccs1)C(=O)Nc1ccc(Br)c(C)c1
→ 131%[activator] | 50%[activator]
CCOC(=O)c1sc(NC(=O)c2nc(SC)ncc2Cl)c(C(=O)OCC)c1C
→ -15% | 2%
COc1ccc(-n2c(=O)c3sc4ccccc4c3n(CC(=O)NCc3ccccc3)c2=O)cc1
→ -13% | -2%
COc1ccc(CCNC(=O)c2ccc3c(c2)N(Cc2ccccc2)C(=O)CS3=O)cc1OC (stereo not drawn)
→ 0% | 4%
Cc1ccc2c(c1)C(C)(C)C1(/C=C/c3cccc(Cl)c3)NC(=O)CN21 (stereo not drawn)
→ -2% | -3%
COc1ccc(CNC23CC4CC(CC(C4)C2)C3)c2ccccc12
→ -4% | -10%
N#C/C(=C\c1ccc(-c2cccc(Cl)c2Cl)o1)c1ccccc1
→ 75%[activator] | 1%
CN1CCN(c2nc3ccccc3nc2C(=O)Nc2ccc(Oc3ccc(Cl)cc3)cc2)CC1
→ -18% | -11%
COc1ccc2c(c1)c(C(C)=O)c(C)n2CCc1ccccc1
→ ? | 11µM*
Cc1ccc(CNC(=O)c2nccnc2N)cc1
→ 0% | ?
NC(=O)c1cccc(CN(CC2CCOC2)C2CC2)c1 (stereo not drawn)
→ 11% | 15%
CCOc1ccc(-n2c(SCC(=O)N3CCCCC3)nc3c([nH]c4ccccc43)c2=O)cc1
→ -12% | -8%
CCOc1ccccc1N1CC(c2nc3ccccc3n2CCOc2ccccc2)CC1=O (stereo not drawn)
→ -28% | -15%
Cc1ccc(NC(=O)Cc2coc3c(C)c(C)ccc23)cc1Cl
→ 1% | 1%
CN(C)CCCNC1CCCCC1
→ -2% | 4%
O=C(C1=C(O)C(=O)N(CCc2ccccc2)C1c1cccnc1)c1ccco1 (stereo not drawn)
→ -4% | -23%
CCCOC(=O)c1nc2ccccc2nc1NCc1ccc2c(c1)OCO2
→ -3% | -1%
CCCCn1c(Br)nc2c1c(=O)[nH]c(=O)n2C
→ 12% | 1%
Cc1ccc(C(NC(=O)C2CCCCC2)c2cccnc2)cc1 (stereo not drawn)
→ 8% | 14%
CCN(CC)C(=O)c1cnn(-c2ccc(F)cc2)c1-n1cccc1
→ 3% | 6%
Cc1ccccc1Cn1nc(-c2ccc(C)c(S(=O)(=O)N3CCCCC3)c2)ccc1=O
→ 9% | 8%
COc1ccc(-c2c(NC(=O)C(C)C)oc3ccccc3c2=O)cc1
→ 7% | -14%
O=C1CC(c2ccccc2)Cc2[nH]c(=O)c(-c3nc(-c4cccc(Cl)c4)cs3)cc21 (stereo not drawn)
→ -1% | -8%
N#CC1=C(N)OC2=C(C(=O)CC(c3ccc(Cl)cc3)C2)C1c1ccc(Cl)c(Cl)c1 (stereo not drawn)
→ 0% | 16%
Cc1c(OC(=O)c2ccc(F)cc2)cccc1OC(=O)c1ccc(F)cc1
→ 0% | -6%
CC(C(=O)Nc1ccc(F)cc1)n1cnc2c1c(=O)n(C)c(=O)n2C (stereo not drawn)
→ 24% | 6%

3 structures from above, arranged by number of heavy atoms, descending.
Order of results: 2A firefly | StopGo RLuc
CCCOC(=O)c1nc2ccccc2nc1NCc1ccc2c(c1)OCO2
→ -3% | -1%
CC(C(=O)Nc1ccc(F)cc1)n1cnc2c1c(=O)n(C)c(=O)n2C (stereo not drawn)
→ 24% | 6%
CCCCn1c(Br)nc2c1c(=O)[nH]c(=O)n2C
→ 12% | 1%

(next part)
Order of results: 2A firefly | StopGo RLuc
CCOc1ccc(N(C)S(=O)(=O)c2ccc3[nH]cc(C(=O)NCc4ccccc4)c(=O)c3c2)cc1
→ -18% | -12%
COc1ccc(CCNC(=O)C2CC(=O)N(CCc3ccccc3)C2)cc1OC (stereo not drawn)
→ -7% | 3%
CCOc1ccc(NC(=O)c2cc(S(=O)(=O)N3CCCCCC3)cn2C)cc1
→ -7% | 6%
CNC(=O)c1ccc(NC(=O)CCn2c(=O)oc3cc(S(=O)(=O)N4CCCC4)ccc32)cc1
→ -10% | -9%
COc1ccc2c(c1)CCCN2C(=O)c1cc2ccc(F)cc2nc1C
→ -12% | 0%
Cc1ccccc1Cn1c(NC2CCCCC2)nc2c1c(=O)[nH]c(=O)n2C
→ -11% | -6%
CCc1ccccc1NC(=O)CSc1nc2nc(C)c(Br)cc2[nH]1
→ -2% | -8%
CN(C)CCNC(=O)C(=O)NCC(c1cccnc1)N1CCN(c2ccccc2)CC1 (stereo not drawn)
→ -25% | -16%
CC(Sc1n[nH]c(C(C)C)n1)C(=O)c1c[nH]c2ccccc12 (stereo not drawn)
→ 4% | 2%
COc1ccc(C(=O)c2ccc(F)cc2)cc1
→ 0% | 0%
COc1ccc(OC)c(NC(=O)c2ccc3c(c2)c(C)c(C)n3Cc2ccc(F)cc2)c1
→ 4% | -9%
CC1(C)Cc2c(sc3c2c2nc(Cc4ccccc4)nn2c(=O)n3CC(N)=O)CO1
→ -7% | -14%
Fc1ccc(Nc2nc(N3CCOCC3)c3ccccc3n2)cc1
→ -5% | -16%
COc1nc(Oc2ccc(=O)n(C)n2)nc(N(C)C)n1
→ -2% | -4%
Cn1c(NCCO)nc2c1c(=O)n(Cc1ccccc1Cl)c(=O)n2C
→ 2%&-8% | 0%&-10%
Cc1ccc(N(C)C(=O)Cn2nc(Cc3ccncc3)c3ccccc3c2=O)cc1C
→ -12% | 6%
Cc1ccc(C)c(-c2nc3ccc(C)cc3c(C(=O)O)c2C)c1
→ 6% | -1%[1.06 µM]
Cc1cc(Nc2cccc(C(F)(F)F)c2)nc(NCc2ccccc2)n1
→ ? | ?
Cc1cc(C(=O)N2CCN(c3ccccc3)CC2)c2c(C)nn(-c3cccc(F)c3)c2n1
→ -1% | -8%
CCCC(=O)Nc1c(C(=O)N2CCN(c3ccccc3)CC2)oc2ccccc12
→ -16% | -5%
CCOc1ccc(CN(CC)Cc2cc(=O)n3[nH]c(-c4cccc(C)c4)cc3n2)cc1
→ -13% | -11%
Cc1cc(NC(=O)N(Cc2ccncc2)C2CC2)no1
→ -7% | -15%
Cc1ccc(NC(=O)Cn2ccc3sccc3c2=O)c(C)c1
→ 19% | 8%
O=C(Nc1ccc(Cl)c(C(F)(F)F)c1)c1c(Cl)cccc1Cl
→ 12% | 10%
CCOC(=O)c1c(C)[nH]c(C)c1S(=O)(=O)N1CCC(C(=O)N2CCN(c3ccc(Cl)cc3)CC2)CC1
→ -19% | 18%
CN(C)S(=O)(=O)N(CC(=O)NCCSCc1ccc(Cl)cc1Cl)c1ccccc1
→ 7% | 9%
CN(Cc1cnc2nc(N)nc(N)c2n1)c1ccc(C(=O)N[C@@H](CCC(=O)O)C(=O)O)cc1
→ -67% | -43%
CN1CCN(C(=O)Cn2nc(-c3cccc([N+](=O)[O-])c3)c3ccccc3c2=O)CC1
→ -7% | -14%
CC(C)(C)OC(=O)CN(CCc1ccccc1)CCS(C)(=O)=O
→ -10% | -10%
COC(=O)c1c(NC(=O)CCCOc2ccc(C(C)(C)C)cc2)sc2c1C(C(=O)OC)CC2 (stereo not drawn)
→ ? | -1%
O=C(c1ccccc1F)N(Cc1cccs1)c1ccc(O)cc1
→ ? | ?
Cc1cc(C)c2c(=O)cc(C(=O)N(Cc3ccc(F)cc3)C3CCS(=O)(=O)C3)oc2c1 (stereo not drawn)
→ -13% | 0%
Cc1ncc(-c2ccc(S(=O)(=O)Nc3ccc(F)cc3C)cc2)o1
→ ? | 55%[activator]
CCCCCCCCCCC(=O)Nc1cccc(C)c1C
→ 9% | 5%
CC(C)CNc1nc(-c2ccc(S(=O)(=O)N3CCCCCC3)cc2)cs1
→ ? | ?
CSc1nn(Cc2ccc(C)cc2)c(N)c1S(=O)(=O)c1ccccc1
→ ? | 47%[activator]
COc1ccc(NC(=O)c2cc3ccccc3o2)c(OC)c1
→ 126%[activator] | 14%
CCCCNc1sc(S(=O)(=O)CCC)nc1S(=O)(=O)c1ccc(C)cc1
→ -4% | 192%[activator]
Cc1ccc(CNC(=O)CCCN2C(=O)COc3ccc(C)cc32)cc1
→ -24% | -6%
S=C(NCc1ccc(Cl)cc1)NC1CC2CCC1C2 (stereo not drawn)
→ 10% | 136%[activator]
COc1cccc(N2CC(NC(=O)/C=C\c3ccc(OC)c(OC)c3)CC2=O)c1 (stereo not drawn)
→ -17% | -3%
O=C(Nc1ccc2oc(-c3ccccc3Br)nc2c1)c1ccc2c(c1)OCO2
→ -22% | ?
c1ccc2c(NC3C4CC5CC(C4)CC3C5)nc(N3CCCC3)nc2c1 (stereo not drawn)
→ -3% | -11%
O=C(C(c1ccccc1)c1ccccc1)N(C1CCCCC1)C1CCCCC1
→ 23% | -11%[1.06 µM]
COc1ccc(C)cc1NC(=O)CN1c2ccccc2S(=O)(=O)c2ccccc21
→ -8% | 0%
Cc1cc(F)ccc1NC(=O)Cn1cnc2c1c(=O)n(C)c(=O)n2C
→ -1% | 20%
CCc1noc(CN2CCN(Cc3cc(C)no3)CC2)n1
→ -8% | -10%
FC(F)(F)c1ccc(-c2noc(CSc3nc4ccccc4o3)n2)cc1
→ 9% | -8%
Cn1c(NCCO)nc2c(c1=O)C1(CCCCC1)Cc1ccccc1-2
→ -12% | -12%
Cc1ccc(NC(=O)CSc2nc3ccccc3n2CCC#N)cc1C
→ 9% | 17%

(cont.)
Order of results: 2A firefly | StopGo RLuc
Cc1ccc(NC(=O)CN2C(=O)C3(SCC(=O)N3c3ccc(F)c(F)c3)c3ccccc32)c(C)c1 (stereo not drawn)
→ ? | -22%
CCOc1ccc(-c2nnc(SCC(=O)NC3CCCCC3)nc2-c2ccc(OCC)cc2)cc1
→ -11% | -6%
O=C(COc1ccccc1F)Nc1ccc2nc(SCC(=O)N3CCc4ccccc43)sc2c1
→ -14% | -8%
COc1cccc(NC2=CC(c3ccc(C(C)C)cc3)N(c3cccc(OC)c3)C2=O)c1 (stereo not drawn)
→ 0% | 28%
CCSc1nc(-c2ccc(Cl)cc2)nc2c1Cc1c(CO)cnc(C)c1O2
→ -20% | -12%
COC(=O)c1ccc(CNC(=O)c2ccc3c(c2)CCCC3)cc1
→ 25% | 8%
O=C(CCNS(=O)(=O)c1ccc2c(c1)CCN2C(=O)C1CC1)Nc1ccc(OC(F)(F)F)cc1
→ 4%&-18% | 22%&-2%
COc1cc(C2c3c(-c4cc(C)cc(C)c4O)n[nH]c3C(=O)N2Cc2cccnc2)ccc1O (stereo not drawn)
→ 3% | 22%
O=c1c(-c2ccc(Cl)cc2)c(C(F)(F)F)oc2c(CN3CCCCC3)c(O)ccc12
→ 6% | -7%
O=C(Cn1c2ncccc2c(=O)n1-c1ccccc1)Nc1cccc(C(F)(F)F)c1
→ -14% | -7%
CCCn1c(CCC(=O)Nc2ccc(C)c(Cl)c2)nc2cccnc21
→ -5% | 1%
COc1ccc(C)cc1CN1CCN(C(=O)Nc2ccc(F)cc2)CC1
→ -3% | -13%
Cc1ccc2c(c1)c(=O)c(C(=O)c1ccncc1)cn2CC(=O)Nc1c(C)cccc1C
→ -15% | -12%
CNc1nc2c(c(=O)n(C)c(=O)n2C)n1Cc1cccc(C)c1
→ ? | ?
CCNC(=O)NC(=O)CN(CCC1CCCCC1)CC(N)=O
→ -2% | 7%
